NPYLR7 agonist: mosquito NPYLR7 agonism | actives 0.15% (n = 270,000) | HEK293T NPYLR7/Galpha15, GCaMP6s calcium fluorescence | activation, % at 10 µM; in the data active = activation above about 40%;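 note: 0% = vehicle and 100% = reference agonist at the receptor; some compounds past the cut are filed as inactive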
NPYLR7 agonist max-min: also measured in NPYLR7 agonist; calls as there; activation, %; measured here: Max-Min RFU normalised activation; some inactives read as strong as hits;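 span of the calcium signal over five minutes; 0% = vehicle and 100% = native peptide agonist; compound fluorescence can raise it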
Numbers without * were called inactive; & = joins results of further samples.

[1] Cc1ccc(Nc2nc(N3CCN(CCO)CC3)nc3nccnc23)cc1C
[2] Cc1nccc(C(=O)NCc2ccc(N3CCCCC3)cc2)n1
[3] CCNC(=O)N1CCN(C(=O)CCOCC(F)(F)F)CC1
[4] CCC(=O)N1CCN(C(=O)c2c(F)cc(OC(F)F)cc2F)CC1
[5] Cc1cc(C)cc(Oc2coc3cc(OCC(O)Cn4nc(C)cc4C)ccc3c2=O)c1 (stereo not given)

assay / entry	1	2	3	4	5
NPYLR7 agonist	1	-16	-1	5	-3
NPYLR7 agonist max-min	1	-20	-2	4	6

[6] COc1cc(-c2cc(C(=O)NCc3cccc(Cl)c3C)c3ccccc3n2)cc(OC)c1OC
[7] COC(=O)NCCC(=O)N(Cc1ccccn1)c1ccc(F)cc1F
[8] CC1CN(S(=O)(=O)c2ccc(F)c(C(=O)O)c2)CC(C)O1 (stereo not given)
[9] CC1C(=O)N(C)CCN1Cc1ccc(OCC(=O)N2CCOCC2)cc1 (stereo not given)
[10] CCOC(=O)c1c(NC(=O)COc2ccc(C(C)C)cc2)sc2c1CCC2

assay / entry	6	7	8	9	10
NPYLR7 agonist	25	3	-2	-2	13
NPYLR7 agonist max-min	7	3	-5	-4	10

[11] Cc1ccc(F)cc1-n1c(CCCN2CCOCC2)n[nH]c1=O
[12] Cc1ccc(CNC(=O)COc2cc(=O)n3ccccc3n2)cc1
[13] O=c1c(C2NCCC3(O)CCCCC23)coc2ccc(Cl)cc12 (stereo not given)
[14] C=CCn1c(C2CC(=O)N(c3cc(C)cc(C)c3)C2)nc2ccccc21 (stereo not given)
[15] COC(=O)c1ccc(Nc2ncnc3[nH]ncc23)cc1

assay / entry	11	12	13	14	15
NPYLR7 agonist	5	-4	17	-2	4
NPYLR7 agonist max-min	4	0	10	27	9

[16] CO[C@@H](C(=O)Nc1cc2c(C)cc(=O)oc2cc1C)c1ccccc1
[17] CCCNC(=O)C1(C)CCCN(Cc2cc3ccccc3o2)C1 (stereo not given)
[18] CC(=O)N(C)C1CCN(Cc2cc(F)ccc2Br)CC1
[19] Cc1csc(Cc2n[nH]c(=O)n2[C@H](C)c2ccc(F)cc2)n1
[20] CN(Cc1ccc(S(C)=O)cc1)C(=O)c1cc(F)ccc1F (stereo not given)

assay / entry	16	17	18	19	20
NPYLR7 agonist	-4	-2	5	5	2
NPYLR7 agonist max-min	-8	-3	7	1	27

[21] COCc1[nH]n2c(=O)c(Cc3ccccc3)c(C)nc2c1-c1ccc(Cl)cc1
[22] CC(C)(C)C(=O)N1CCN(c2ncnc3c2nnn3-c2cccc(F)c2)CC1
[23] CCS(=O)(=O)c1nc(S(=O)(=O)c2ccc(C)cc2)c(NC(C)C)s1
[24] COc1cc2c(c(OC)c1OC)C(c1ccc3c(c1)nnn3C)CC(=O)N2 (stereo not given)
[25] COC(=O)[C@]1(C(C)C)N[C@H](c2ccnc3ccccc23)[C@@H]2C(=O)N(C)C(=O)[C@@H]21

assay / entry	21	22	23	24	25
NPYLR7 agonist	-14	-3	1	-14	-1
NPYLR7 agonist max-min	-21	-14	-1	-10	-3

[26] CCN(CC)CCN(CC)CCC1=C(C)CCCC1(C)C
[27] Cc1nc(N(C)C)c2sc(=S)n(-c3ccccc3)c2n1
[28] CCC(O)(CC)c1ccc(CN(Cc2ccccc2C)CC2CCCO2)o1 (stereo not given)
[29] CCS(=O)(=O)c1ncc(CN(C)Cc2nc3ccccc3[nH]2)n1Cc1ccccc1
[30] C=CCOc1c(OC)ccc2c1CN(CC=C)C(=O)CCN2CC(O)COc1ccc(OC)cc1 (stereo not given)

assay / entry	26	27	28	29	30
NPYLR7 agonist	-10	-5	17	1	4
NPYLR7 agonist max-min	-15	-8	14	-4	7

[31] COc1ccc(CN(C)C(=O)c2cc3n(n2)CCCNC3)c2cccnc12
[32] COc1cc(-c2nc(CN3CCSCC3)c(C)o2)ccc1F
[33] CC(OC(=O)c1ccc(-c2ccc(Cl)cc2)o1)C(=O)NCC(F)(F)F (stereo not given)
[34] O=S(=O)(c1cccnc1)N1CCOC(CCCc2ccccc2)C1 (stereo not given)
[35] COc1ccc(-n2nc(C)c(C(=O)NC3CC3)c2C)cc1

assay / entry	31	32	33	34	35
NPYLR7 agonist	-4	1	-2	16	-2
NPYLR7 agonist max-min	-5	1	-6	2	0

[36] CCC(=O)N(CC(C)C)c1ccc(CC(=O)O)cc1
[37] CCOc1ccc(Nc2nc(Nc3ccc(OCC)cc3)nc(Sc3nnc(C)s3)n2)cc1
[38] COC(=O)c1cc(C=C2N=C(c3cccc(Cl)c3)OC2=O)oc1C
[39] Cc1ccc(C(=O)NCC(=O)N2CCOC(COCc3cccc(C)c3)C2)cc1 (stereo not given)
[40] CCOC(=O)c1c(NC(=O)c2ccccc2F)sc(C(=O)N2CCCCC2)c1C

assay / entry	36	37	38	39	40
NPYLR7 agonist	5	-6	6	-7	-1
NPYLR7 agonist max-min	1	-8	5	-11	-1

[41] CC(C)(C)c1csc(CN2CCN(CC(=O)Nc3ccccc3F)CC2)n1
[42] NC(=O)c1ccc(C(=O)N2CCC3(CCCCCC3)C2)cc1
[43] CC(C)(C)c1nn2cnnc2n(/N=C\c2ccccc2)c1=O
[44] NS(=O)(=O)c1ccc(F)cc1
[45] COc1ccc(Cl)cc1NC(=O)CCC1CCCN(C(=O)CC2=CCCCC2)C1 (stereo not given)

assay / entry	41	42	43	44	45
NPYLR7 agonist	-23	-4	2	5	7
NPYLR7 agonist max-min	-30	-5	-2	4	3

[46] O=C(Nc1ccccc1Cl)Nc1ccnn1C1CCN(C2CCSCC2)CC1
[47] N#Cc1ccccc1S(=O)(=O)N1CCN(CC(OCc2c(F)cccc2F)c2ccc(Cl)cc2)CC1 (stereo not given)
[48] CCS(=O)(=O)N1CCN(C(=O)CCC(=O)NC2CCCC2)CC1
[49] CNc1cccc(-c2ccc(OC)cc2OC)n1
[50] CCOC(=O)C1CCN(CC(=O)N2N=C(c3cc(C)ccc3C)CC2c2ccc(Cl)cc2)CC1 (stereo not given)

assay / entry	46	47	48	49	50
NPYLR7 agonist	2&-3	26	5	2	-1
NPYLR7 agonist max-min	-3&-4	14	3	0	10

[51] CC(NC(=O)C(=O)NCCOc1ccc(F)cc1)c1ccccc1 (stereo not given)
[52] COc1ccc(NC(=O)C2CC(=O)N(Cc3ccc(Cl)cc3)C(=Nc3ccccc3)S2)cc1 (stereo not given)
[53] Cc1sc2nc(C(C)N3CCCC3c3ccsc3)[nH]c(=O)c2c1C (stereo not given)
[54] CCc1ccccc1N1CCN(Cc2ccc(F)cc2)C(C)C1=O (stereo not given)
[55] Cc1n[nH]c(C)c1CCC(=O)N1CCc2c(nc(N(C)C)[nH]c2=O)C1

assay / entry	51	52	53	54	55
NPYLR7 agonist	0	0	-2	9	21
NPYLR7 agonist max-min	-1	-1	-3	16	10

[56] Cc1ccc(-n2c(-c3ccc(Br)cc3)c[n+]3c2CCCCC3)cc1
[57] CN(Cc1ccc(SC(F)F)cc1)c1cn[nH]c(=O)c1Cl
[58] CN(CCc1cccs1)C(=O)NC1CCN(C)C1=O (stereo not given)
[59] CCN(CC)C(=O)Oc1ccc2c(ccn2Cc2ccc(C(F)(F)F)cc2)c1-c1ccc(C#N)cc1
[60] COC(=O)c1ccc(CSc2ncc(CO)n2CC(=O)NC(C)C)cc1

assay / entry	56	57	58	59	60
NPYLR7 agonist	3	10	1	2	4
NPYLR7 agonist max-min	66	7	-1	5	0

[61] CCCCCn1c(N2CCN(c3ccccc3)CC2)nc2c1c(=O)n(C)c(=O)n2C
[62] O=C(Cc1n[nH]c(=O)c2ccccc12)NC1CCCC(C(F)(F)F)C1 (stereo not given)
[63] CCc1nc2ccc(C(=O)Nc3ccc(OC)c(OC)c3)cn2c1N(CC)C(=O)NCCc1ccccc1
[64] CC(Oc1ccc(Br)cc1)C(=O)N(C)c1nccs1 (stereo not given)
[65] CCN1CCN(c2cc(C)nc3c(-c4ccc(Cl)cc4)c(C)nn23)CC1

assay / entry	61	62	63	64	65
NPYLR7 agonist	3	13	0	10	-1
NPYLR7 agonist max-min	1	8	-2	6	-2

[66] CN(C)c1ccc(CNC(=O)c2ccc(=O)[nH]n2)cc1
[67] CCOC(=O)NC(=O)CN1CCN(c2cccc(Cl)c2)CC1
[68] CN(C(=O)CN1CCN(c2cc(-c3ccc(-c4ccccc4)cc3)ncn2)CC1)c1ccccc1
[69] Cc1nc2c(c(NCc3cc(CC(C)C)on3)n1)CNC2
[70] COc1ccc(Cl)cc1C1=N/C(=C/c2cc(OC)c(OC)c(OC)c2)C(=O)O1

assay / entry	66	67	68	69	70
NPYLR7 agonist	4	-6	5	-4	-2
NPYLR7 agonist max-min	3	-8	2	-4	-12

[71] Clc1cccc(C2c3cccn3CCCN2Cc2cccs2)c1 (stereo not given)
[72] Cc1nn(C)c(Cl)c1/C=C1/CCCc2c1nc1ccccc1c2C(=O)O
[73] Cc1c(C)n2c3c(=O)n(CCN4CCCCC4)c(=O)n(C)c3nc2n1-c1cccc(Cl)c1
[74] Cc1cccc(C)c1-n1c(=O)c2ccccc2n2c(SCC(=O)N3CCCCC3C)nnc12 (stereo not given)
[75] COc1ccccc1-n1c(SCc2nc(C(=O)Nc3ccc(F)cc3)cs2)nnc1-c1ccccc1Cl

assay / entry	71	72	73	74	75
NPYLR7 agonist	14	57*	22	2	16
NPYLR7 agonist max-min	15	59*	7	-1	13

[76] COc1ccc(-n2ncc(C(=O)N(C)C)c2C)cc1
[77] CC(C)(C)c1csc(NC(=O)c2ccc(Cl)c([N+](=O)[O-])c2)n1
[78] O=c1[nH]c2ccccc2cc1CN1CCNC(c2ccccc2)C1 (stereo not given)
[79] O=C(CNC(=O)c1ccc2c(c1)OCO2)N=Nc1c(O)n(Cc2ccc3c(c2)OCO3)c2ccccc12
[80] CCC(C)c1cc(C(=O)OCC(N)=O)on1 (stereo not given)

assay / entry	76	77	78	79	80
NPYLR7 agonist	10	0	12	-2	21
NPYLR7 agonist max-min	21	-2	-1	-2	7

[81] O=C(CCn1ccccc1=O)N1CCOC(C(F)(F)F)C1 (stereo not given)
[82] Fc1ccc(-n2cccn2)c(C2NCCc3[nH]cnc32)c1 (stereo not given)
[83] Cc1ccc(-c2ccc(SCC(=O)c3ccccc3)nn2)cc1
[84] Cc1cc(O)c(-c2ccn[nH]2)c(=O)o1
[85] CC1(C)C2([N+](=O)[O-])CN3CC1([N+](=O)[O-])CN(C2)C3c1ccccc1 (stereo not given)

assay / entry	81	82	83	84	85
NPYLR7 agonist	-1	9	1	0	3
NPYLR7 agonist max-min	-5	7	1	45	0

[86] CCOc1ccc2ccccc2c1C(=O)N1CCN(c2nccc(-c3ccco3)n2)CC1
[87] Cc1ccc(C)c(-n2c(SCC(=O)N(C)C)nc3ccccc3c2=O)c1
[88] O=C1NC(=Nc2ccccc2)S/C1=C\c1ccc(F)cc1
[89] O=C(c1ccccc1OC(F)(F)F)N1CCC(Cc2ccc(-c3ccccc3)cc2)CC1
[90] N#CC(=Cc1ccc(F)cc1)S(=O)(=O)c1ccc(Cl)cc1

assay / entry	86	87	88	89	90
NPYLR7 agonist	-2	1	-9	1	5
NPYLR7 agonist max-min	0	-3	-15	6	13

[91] O=C(c1cccs1)N(Cc1ccc(C(F)(F)F)cc1)CC1CC(c2cccc(F)c2)=NO1 (stereo not given)
[92] Cc1cc(C)n(CC(O)COc2ccc3c(c2)CCC3)n1 (stereo not given)
[93] Cc1noc(C)c1CN(C)Cc1cc2ccccc2nc1N1CCOCC1
[94] CC1C(=O)N(c2ccccc2Cl)CCN1C(=O)c1ccc(Cl)cc1 (stereo not given)
[95] Cc1nn(-c2ccc(Cl)cc2Cl)c(Oc2ncnc(Cl)c2N)c1C
[96] CC1=NN(Cc2c(F)cccc2Cl)c2nc3c(c(=O)n(C)c(=O)n3C)n2C1C (stereo not given)
[97] NC(=NS(=O)(=O)c1ccc(Br)cc1)c1ccccc1
[98] CCN1CCN(C2(C(=O)O)Cc3ccccc3C2)CC1

assay / entry	91	92	93	94	95	96	97	98
NPYLR7 agonist	4	-7	-7	-13	7	-10	-2	5
NPYLR7 agonist max-min	9	-11	-17	-11	1	-11	-6	3

Compounds above containing an aryl methoxy group, in the order listed:
[6] COc1cc(-c2cc(C(=O)NCc3cccc(Cl)c3C)c3ccccc3n2)cc(OC)c1OC
[24] COc1cc2c(c(OC)c1OC)C(c1ccc3c(c1)nnn3C)CC(=O)N2 (stereo not given)
[30] C=CCOc1c(OC)ccc2c1CN(CC=C)C(=O)CCN2CC(O)COc1ccc(OC)cc1 (stereo not given)
[31] COc1ccc(CN(C)C(=O)c2cc3n(n2)CCCNC3)c2cccnc12
[32] COc1cc(-c2nc(CN3CCSCC3)c(C)o2)ccc1F
[35] COc1ccc(-n2nc(C)c(C(=O)NC3CC3)c2C)cc1
[45] COc1ccc(Cl)cc1NC(=O)CCC1CCCN(C(=O)CC2=CCCCC2)C1 (stereo not given)

assay / entry	6	24	30	31	32	35	45
NPYLR7 agonist	25	-14	4	-4	1	-2	7
NPYLR7 agonist max-min	7	-10	7	-5	1	0	3

[49] CNc1cccc(-c2ccc(OC)cc2OC)n1
[52] COc1ccc(NC(=O)C2CC(=O)N(Cc3ccc(Cl)cc3)C(=Nc3ccccc3)S2)cc1 (stereo not given)
[63] CCc1nc2ccc(C(=O)Nc3ccc(OC)c(OC)c3)cn2c1N(CC)C(=O)NCCc1ccccc1
[70] COc1ccc(Cl)cc1C1=N/C(=C/c2cc(OC)c(OC)c(OC)c2)C(=O)O1
[75] COc1ccccc1-n1c(SCc2nc(C(=O)Nc3ccc(F)cc3)cs2)nnc1-c1ccccc1Cl
[76] COc1ccc(-n2ncc(C(=O)N(C)C)c2C)cc1

assay / entry	49	52	63	70	75	76
NPYLR7 agonist	2	0	0	-2	16	10
NPYLR7 agonist max-min	0	-1	-2	-12	13	21

Assay outcomes deposited in PubChem BioAssay by Fisher Drug Discovery Resource Center.

Not all compounds are listed; rates above refer to the full screens.
